D2 PAM: human D2 receptor positive allosteric modulation; P14416; DiscoveRx D2 beta-arrestin cells, luminescence, 90 min; 100% = 57 uM dopamine signal; potentiation, % (concentration not given with the values); actives 0.23% (n = 360,000); AID 624464; active = potentiation of 50% or more; inconclusive = 30% to 50%; inactive = 30% or less;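 further: compound concentration not given in the record; tested on top of an EC20 dose of dopamine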
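D2 cells co-treated with compound plus 50 nM dopamine (EC20) for 90 min at 37 deg C to detect potentiation. Beta-arrestin recruitment was read as enzyme-fragment luminescence after 1 h at ambient temperature. Full response was set by 57 uM dopamine.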
CtBP-E1A blk: inhibitors of CtBP/E1A interaction | AlphaScreen GST-E1A/His-CtBP binding, 1536-well; stronger effect = lower value; control for the full effect not named in the record | activity change, % (test concentration not listed) | actives 0.49% (n = 340,000) | AID 651724; in the data active means activity change below about -65%; inconclusive means about -30% to -65%; inactive means above about -30%; further: on the % scale 0 is the no-effect control and ±100 the full control effect; compound concentration not given in the record
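Homogeneous bead-based format: GST-tagged E1A captured on glutathione donor beads, His-tagged CtBP on nickel acceptor beads; compounds precede bead addition by 2 h at 37 °C.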
TRPML1 inh: blocks the human TRPML1 channel; AID 624415; activity change, negative = inhibition, % (test concentration not listed); TRPML1-inducible cells, Ca2+ dye fluorescence, FDSS; stronger effect = lower value; inhibition of EC80 agonist-evoked calcium signal; Q9GZU1; actives 0.02% (n = 390,000); in the data active means activity change below about -50%; inconclusive means about -30% to -50%; inactive means above about -30%;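 further: stimulus is agonist 54-4 at its EC80 concentration; on the % scale 0 is the no-effect control and ±100 the full control effect; compound concentration not given in the record; the text of the record puts the active cut at -80%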
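TRPML1-DL cells, Tet-induced overnight (~16 h, 37 °C) at 1,500 cells/well, were loaded with Ca8 no-wash dye plus quencher for 45-90 min at room temperature. Compounds were pinned during FDSS kinetic reading; agonist 54-4 at EC80 (4 uM final) then added.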
Six1-Eya2 inh: inhibitors of human Six1/Eya2 interaction. actives 0.56% (n = 360,000). AID 651725. AlphaScreen GST-Six1/His-Eya2 binding, biochemical; stronger effect = lower value; control for the full effect not named in the record. activity change, % (no concentration beside the values); in the data active = activity change below about -65%; inconclusive = about -30% to -65%; inactive = above about -30%; further: on the % scale 0 is the no-effect control and ±100 the full control effect; compound concentration not given in the record
Target sequence (O00167 whole entry, looked up): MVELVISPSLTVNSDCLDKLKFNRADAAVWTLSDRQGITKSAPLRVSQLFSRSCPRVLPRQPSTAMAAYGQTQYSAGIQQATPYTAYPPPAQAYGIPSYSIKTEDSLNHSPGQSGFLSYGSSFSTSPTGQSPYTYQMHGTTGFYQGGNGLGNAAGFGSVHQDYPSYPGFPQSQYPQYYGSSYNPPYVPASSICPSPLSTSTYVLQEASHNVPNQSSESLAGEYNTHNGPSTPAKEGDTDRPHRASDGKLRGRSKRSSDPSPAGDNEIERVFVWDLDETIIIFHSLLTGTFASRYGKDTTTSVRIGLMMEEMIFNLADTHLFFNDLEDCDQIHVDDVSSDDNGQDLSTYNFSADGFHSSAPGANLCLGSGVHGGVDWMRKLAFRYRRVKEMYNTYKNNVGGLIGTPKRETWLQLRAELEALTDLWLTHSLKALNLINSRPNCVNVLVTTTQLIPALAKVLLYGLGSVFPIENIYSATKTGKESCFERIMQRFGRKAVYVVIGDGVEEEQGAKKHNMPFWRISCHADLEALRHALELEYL
Target sequence (Q15475 whole entry, looked up): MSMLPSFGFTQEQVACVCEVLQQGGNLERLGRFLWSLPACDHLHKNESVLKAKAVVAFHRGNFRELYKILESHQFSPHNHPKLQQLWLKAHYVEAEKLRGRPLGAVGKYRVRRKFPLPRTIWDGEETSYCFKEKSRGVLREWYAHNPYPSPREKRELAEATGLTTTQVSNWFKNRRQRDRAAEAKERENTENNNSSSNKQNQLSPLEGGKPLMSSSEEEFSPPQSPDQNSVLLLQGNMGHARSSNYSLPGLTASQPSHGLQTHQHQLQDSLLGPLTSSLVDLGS
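Six1/Eya2 binding was read as AlphaScreen signal after compounds were pinned into GST-Six1 plus His-tagged Eya2 (5X stock 250/500 nM) in pH 8.0 Tris/NaCl/TCEP buffer, beads added, then incubated 1 h, 37 C, dark.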
TRPV1 PAM: potentiators of human vanilloid receptor 1 (TRPV1); actives 0.02% (n = 320,000); potentiation, % at 8.33 µM; TRPV1-expressing cells, Fluo-8 calcium influx, capsaicin EC20 potentiation; host cell line not named in the record; control for the full effect not named in the record; AID 540277; Q8NER1; active means potentiation above 80%; inconclusive means 30% to 80%; inactive means below 30%; further: 0% is about no effect
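Fluo-8 calcium influx in TRPV1-expressing cells, kinetic read (ex 480/em 520 nm). Compound added and read 3 min for agonist activity, followed by capsaicin at EC20 final and 2 min further read for enhancement.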
TRPML1 ag: human mucolipin-1 channel agonism | AID 624414 | actives 0.12% (n = 410,000) | Q9GZU1 | TRPML1-expressing cells, Ca2+ dye fluorescence, FDSS; host cell line not named in the record; reference of the full effect not given here | activation, % (concentration not given with the values); in the data active = activation above about 50%; inconclusive = about 30% to 50%; inactive = below about 30%; further: 0% is about no effect; the text of the record puts the active cut at 80%
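TRPML1-DL cells, Tet-induced overnight (~16 h, 37 degrees C), loaded 45-90 min at room temperature with Ca8 no-wash calcium dye plus quencher. FDSS fluorescence: 10 s baseline, compound pin-transfer, 110 s agonist read, then EC80 54-4 (4uM final) and 110 s antagonist read.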
The depositor's hits bear a star; ? = inconclusive; nt = not tested or not shown.

SMILES	D2 PAM	CtBP-E1A blk	TRPML1 inh	Six1-Eya2 inh	TRPV1 PAM	TRPML1 ag
CN(CC(=O)NCC1CCCCC1)CC(=O)Nc1ccc(F)cc1	-5	nt	18	2	-13	-0.5
CC(=O)Nc1cccc(NC(=O)c2cc([N+](=O)[O-])ccc2N2CCCCC2)c1	6	nt	-17	-7	-14	-0.5
Cc1nnc(SCC(=O)Nc2nc(-c3ccc(F)cc3)cs2)[nH]c1=O	-2	0	-7	-5	13	0.5
N#Cc1ccccc1S(=O)(=O)N1CCN(C(=O)c2cc(=O)[nH]c3ccccc23)CC1	4	5	-7	21	1	-0.4
Nc1cccc(C(=O)c2ccccc2C(=O)O)c1	-5	11	?	0	nt	-0.3
CC(C)CNc1nc2c(c(=O)n(C)c(=O)n2C)n1Cc1cccc(Br)c1	10	-2	0	4	4	-0.6
COCCCn1nnnc1SCC(=O)Nc1nc(C)c(C)s1	23	-8	-7	-1	12	-0.9
O=C(C1CCN(S(=O)(=O)c2cccnc2)CC1)N1CCN(C2CCCC2)CC1	-4	1	-14	10	-2	-0.2
Cc1cc(Br)ccc1NC(=O)CN(C)C(=O)COc1cccc2c1OC(C)(C)C2	-14	-3	0	-3	15	0.3
CCc1ccccc1NC(=O)c1ccc2snnc2c1	-11	0	-18	-12	-23	0.1
CCCOc1ccc(N2C(=O)C3ON(c4ccccc4)C(CCC)C3C2=O)cc1 (stereo not drawn)	-4	0	6	7	4	1.1
Cc1ccc(C(=O)Nc2ccccc2Oc2ccccc2)cc1[N+](=O)[O-]	-18	0	3	-8	-6	1.7
O=C(CSc1nccn1Cc1ccco1)Nc1ccccc1F	9	0	-21	-5	4	0.4
CCCCNC(=O)Cn1nc(C)c(S(=O)(=O)N2CCOCC2)c1C	-1	2	11	8	-1	-0.7
O=C(COc1ccc2c(c1)OCO2)NCc1cccs1	-11	-3	6	-14	nt	-0.5
O=C(Nc1ccccc1C(=O)NCCc1ccccc1)c1cnccn1	-2	1	12	-1	-12	0.9
Fc1ccc(Nc2nc(Oc3ccc4c(c3)OCO4)nc(N3CCOCC3)n2)c(F)c1	-12	1	-2	5	1	-0.5
N#Cc1nc(-c2ccco2)oc1N1CCN(C(c2ccccc2)c2ccccc2)CC1	-1	-2	-4	-28	7	0.7
CCOC(=O)CSc1nnc(CNC(=O)c2ccc(S(=O)(=O)N3CCCCC3)cc2)n1C	3	4	29	2	3	0.1
O=C(Nc1ccc2c(c1)OCCO2)c1c(F)cccc1F	-6	-5	6	0	-14	-0.1

Compound profiles (already shown). Order of screens: D2 PAM | CtBP-E1A blk | TRPML1 inh | Six1-Eya2 inh | TRPV1 PAM | TRPML1 ag
Shown for `CCCOc1ccc(N2C(=O)C3ON(c4ccccc4)C(CCC)C3C2=O)cc1` (stereo not drawn) = -4 | 0 | 6 | 7 | 4 | 1.1
Shown for `CC(C)CNc1nc2c(c(=O)n(C)c(=O)n2C)n1Cc1cccc(Br)c1` = 10 | -2 | 0 | 4 | 4 | -0.6

The list goes on:
SMILES	D2 PAM	CtBP-E1A blk	TRPML1 inh	Six1-Eya2 inh	TRPV1 PAM	TRPML1 ag
COc1ccc(C2C(C(C)=O)=C(O)C(=O)N2c2ccccn2)cc1 (stereo not drawn)	-4	-4	1	0	-1	0.9
COc1ccc(C(=S)N2CCOCC2)cc1OC(=O)c1cccc([N+](=O)[O-])c1	-2	-2	17	-21	5	0.5
CCC(=O)N1CCc2cc(Br)cc(S(=O)(=O)NC3CCN(Cc4ccccc4)CC3)c21	-13	-12	0	-14	?	-1.7
COc1ccc(NC(=O)NCc2ccccn2)cc1OC	3	-1	2	4	0	-0.3
O=C(O)/C=C/C(=O)Nc1ccc(Cl)cc1C(=O)c1ccccc1	-9	3	8	3	4	1.0
CCC1=NN2C(=N)/C(=C/c3cc(C)n(Cc4ccccc4)c3C)C(=O)N=C2S1	-8	3	-7	-7	nt	4.0
COc1ccc(N2CCN(S(=O)(=O)CCNC(=O)c3ccc(Br)o3)CC2)cc1	-5	-4	4	0	2	-0.5
CCCN(CCC)C(=O)CCSCCC(=O)N(CCC)CCC	7	4	2	-5	-22	-0.9
CCCCC1=CC2=CC(=O)C(C)(OC(=O)CC)C(=O)C2=CO1 (stereo not drawn)	-2	nt	0	-7	nt	2.3
NS(=O)(=O)c1ccc(CNC(=O)C(Cc2ccccc2)NS(=O)(=O)c2ccccc2F)cc1 (stereo not drawn)	3	nt	-3	-2	?	0.1
CC(OC(=O)c1ccccc1NCCO)C(=O)NC1CCCCC1C (stereo not drawn)	28	10	3	15	10	-0.3
Cn1cncc1C(=O)c1ccccc1	-2	-11	-20	8	-3	1.4
CCOc1cc(C2CC(=O)NC3=C2C(=O)C(C(=O)OC)C(C)C3)cc(Br)c1O (stereo not drawn)	5	-3	14	-11	11	-0.5
CCOC(=O)N1CCC(NC(=O)CSCc2nc(-c3ccc(OC)cc3)oc2C)CC1	-1	3	7	4	-5	-1.3
CC(=O)Nc1cccc(/C(C)=N/NC(=O)c2ccc(CN3CCOCC3)cc2)c1	-2	2	-5	1	7	-0.7
Cc1sc2ncnc(OCC(=O)c3ccc(S(=O)(=O)N4CCCC4)cc3)c2c1C	-6	-13	-4	-13	3	-0.9
Cc1ccc(NC(=O)CSc2nccc(=O)[nH]2)c(S(=O)(=O)N2CCOCC2)c1	-20	0	15	-2	4	-0.4
CC(C)Sc1nc(-c2ccccc2)cc(=O)[nH]1	-6	35	-2	20	-36	4.9
Nc1nc2ccccc2cc1S(=O)(=O)c1ccccc1	1	-4	-6	17	1	-1.4
CC1=Nc2ccccc2/C1=C\c1nc(-c2ccccc2)oc1O	-21	-11	-7	-9	0	3.5
Cc1ccccc1Nc1cc(C(=O)NCC2CCCO2)c2ccccc2n1 (stereo not drawn)	-13	9	nt	1	3	nt
COc1cc(C2CC(=O)NC(SCC(=O)Nc3ccccc3C)=C2C#N)ccc1O (stereo not drawn)	?	-1	-19	-2	5	0.6
COc1ccc(-c2nc(CN3CCCC(C(=O)NC4CCCC4)C3)c(C)o2)cc1 (stereo not drawn)	-26	1	9	3	-27	0.4
Cc1ccc(NC(=O)CN2C(=O)c3ccccc3C2=O)nc1	-6	9	4	6	-8	0.1
CC1(C)CC2(CC(c3ccccc3F)c3cc(Cl)c(O)cc3O2)NC(=S)N1 (stereo not drawn)	-8	nt	2	-7	15	-0.2
O=C(CN1C(=O)C2CCCCC2C1=O)N1CCN(c2ccc(F)cc2)CC1 (stereo not drawn)	-4	5	9	6	8	0.3
COc1ccc(OC)c(C2NC(=O)NC(C)=C2C(=O)Nc2ccc(C)cc2)c1 (stereo not drawn)	-2	-9	-1	1	?	-0.5
N#CCSc1nc(-c2ccccc2)c2cc(Cl)ccc2n1	2	12	8	5	20	-0.7
Cc1cc(N=Cc2c(O)ccc3ccccc23)no1	19	0	2	3	-2	0.0
c1ccc(-c2cnc(CN3CCN(c4ccccc4)CC3)o2)cc1	-14	-12	10	-8	-5	-0.7
N#C/C(=C\c1ccc(N2CCOCC2)o1)C(=O)NCCc1ccccc1	-7	-5	-18	-5	9	?
C[C@H](NC(=O)C1CC(=O)N(c2ccc3c(c2)OCCO3)C1)C(=O)N1CCC(C(=O)O)CC1 (stereo partly drawn)	-27	-3	2	0	?	0.6
CCOC(=O)CSc1nnc(CNC(=O)c2ccc(S(=O)(=O)N(C)C)cc2)n1C	-5	nt	-8	9	9	0.3
COc1ccc(-n2c(C)nn(CCOc3ccccc3)c2=O)cc1	3	-23	3	-7	4	-1.0
O=C(NC(=S)NCc1ccccc1Cl)c1cccs1	-2	-4	26	-13	nt	3.0
Cc1ccc(OCC(O)CN2CCN(c3ccccc3)CC2)cc1 (stereo not drawn)	-11	-12	19	-5	-6	3.1
O=C(COC(=O)C1=COCCO1)NCc1ccc(Cl)cc1Cl	-15	3	18	4	nt	-0.3
Cc1nc2scc(-c3ccc(Cl)cc3)c2c(=O)n1N	-6	7	3	-6	-4	-0.4
CC(C)(C)C1CCC(OCC(O)CN2CCN(c3ccccc3)CC2)CC1 (stereo not drawn)	3	-11	1	-6	23	1.3
CCn1c(SCC(=O)Nc2ccc(OC)cc2OC)nc2nc3c(cc2c1=O)COC(C)(C)C3	-1	-4	7	-12	15	-0.5
COc1ccc(CCCc2nnc(SCC(=O)N/N=C\c3ccc(O)c(OC)c3)o2)cc1C	16	?	-8	?	20	0.5
Cn1c(CNC(=O)OC(C)(C)C)nnc1SCc1c(Cl)cccc1Cl	-22	-1	-19	-1	nt	0.4
Cc1cccc(C(=O)NCC(=O)N2CCN(c3ccccn3)CC2)c1	-8	-5	-2	7	nt	2.8
O=C(NCc1csc2ccc(Cl)cc12)Nc1cccc2ccccc12	-15	5	4	0	-11	0.6
COC(=O)c1sccc1NC(=O)Nc1cccc(C(C)=O)c1	-25	-18	3	-11	-11	1.5
Cc1ccc(C2=C/C(=C/c3cccnc3)C(=O)O2)c(C)c1	-8	nt	2	-2	-16	0.7
COc1ccc(CC(N)c2csc(Nc3nc(C)cnc3C)n2)cc1 (stereo not drawn)	-9	?	nt	?	nt	0.4
CC(O)(c1cccnc1)c1nc(-c2cccc(F)c2)cs1 (stereo not drawn)	-8	4	nt	4	nt	-0.9
CCC(=O)N1CCc2cc(S(=O)(=O)CCC(=O)Nc3ccc(CC)cc3)ccc21	-1	0	-3	2	?	0.3
CC(C)Cn1cnc2c1c(=O)n(CC(=O)NN)c(=O)n2Cc1ccccc1	-1	-6	39	3	-8	1.1
CC(=O)C1C=CC(C)(C(=O)O)C2C=C(C)C(=O)C(C)(O)C12 (stereo not drawn)	0	5	-1	5	nt	0.0
O=C1CN(C(=O)NCC(=O)N2CCCC2)c2ccccc2N1	5	nt	-5	-2	8	-0.9
Cc1ccc(C)c(N(C)C(=O)c2cc3c(=O)[nH]c4ccc(C)cc4c3s2)c1	-12	nt	-6	-1	7	0.3
COc1cc(-c2noc(-c3cccs3)n2)cc(OC)c1OC	-3	8	-11	-1	-11	-0.8
O=C1CCCc2cc(S(=O)(=O)N3CCC(C(=O)NCc4ccccc4)CC3)ccc2N1	-3	-17	2	4	20	0.2
COc1ccc(/C=C/C(=O)Nc2ccc(S(=O)(=O)Nc3cc(C)nc(C)n3)cc2)cc1OC	-4	-23	-3	-9	3	-1.0
CCC(CC)N1CCN(C(=O)c2cccc(Cl)c2)CC1	-1	-24	10	4	-2	-0.5

Of the compounds above, 4 have a COOH group.
SMILES	D2 PAM	CtBP-E1A blk	TRPML1 inh	Six1-Eya2 inh	TRPV1 PAM	TRPML1 ag
Nc1cccc(C(=O)c2ccccc2C(=O)O)c1	-5	11	?	0	nt	-0.3
O=C(O)/C=C/C(=O)Nc1ccc(Cl)cc1C(=O)c1ccccc1	-9	3	8	3	4	1.0
C[C@H](NC(=O)C1CC(=O)N(c2ccc3c(c2)OCCO3)C1)C(=O)N1CCC(C(=O)O)CC1 (stereo partly drawn)	-27	-3	2	0	?	0.6
CC(=O)C1C=CC(C)(C(=O)O)C2C=C(C)C(=O)C(C)(O)C12 (stereo not drawn)	0	5	-1	5	nt	0.0

Compound activity deposited in PubChem by National Center for Advancing Translational Sciences (NCATS).

Rows were taken by chance, and some 0.95% of all compounds hit somewhere here.
